KCNQ2 inh = KCNQ2 potassium channel inhibitors, primary screen, cell-based, CHO-K1, FluxOR thallium flux, B-score (AID 2156); hit rate 1.1% among 310,000; 20 min; stronger effect = lower value; only compounds with negative scores are shown here; some inactives read as strong as hits; B-score at 10 µM; Potassium voltage-gated channel subfamily KQT member 2 (Rattus norvegicus), O88943;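 active = fluorescence ratio B-score at most minus 3 library SDs, with starting brightness B-score within 2 library SDs, cut at about -5.5 in these data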
Target sequence (O88943 whole entry, looked up): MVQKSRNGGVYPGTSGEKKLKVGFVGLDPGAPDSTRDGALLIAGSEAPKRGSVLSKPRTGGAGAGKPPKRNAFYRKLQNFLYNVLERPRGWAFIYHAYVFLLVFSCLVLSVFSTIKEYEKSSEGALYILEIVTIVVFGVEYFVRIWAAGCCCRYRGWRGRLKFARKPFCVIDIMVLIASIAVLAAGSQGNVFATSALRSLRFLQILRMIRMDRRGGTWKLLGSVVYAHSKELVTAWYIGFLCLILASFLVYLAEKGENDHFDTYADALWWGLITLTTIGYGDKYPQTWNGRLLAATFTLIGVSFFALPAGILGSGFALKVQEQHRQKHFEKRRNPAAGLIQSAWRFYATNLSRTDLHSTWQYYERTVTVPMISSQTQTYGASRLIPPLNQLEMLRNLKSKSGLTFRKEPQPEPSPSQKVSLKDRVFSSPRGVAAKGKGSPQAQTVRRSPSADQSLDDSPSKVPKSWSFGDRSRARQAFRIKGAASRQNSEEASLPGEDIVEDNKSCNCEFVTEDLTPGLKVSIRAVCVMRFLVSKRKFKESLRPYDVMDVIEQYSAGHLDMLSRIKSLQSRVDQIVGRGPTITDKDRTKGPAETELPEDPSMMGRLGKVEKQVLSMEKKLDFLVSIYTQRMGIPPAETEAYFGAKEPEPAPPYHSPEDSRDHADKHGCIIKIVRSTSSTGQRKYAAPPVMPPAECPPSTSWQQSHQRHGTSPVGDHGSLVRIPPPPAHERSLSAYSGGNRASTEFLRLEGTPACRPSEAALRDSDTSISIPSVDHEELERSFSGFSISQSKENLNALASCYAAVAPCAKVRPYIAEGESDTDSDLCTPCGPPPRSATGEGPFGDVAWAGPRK
KCNQ2 inh baseline = also measured in KCNQ2 inh; calls as there; B-score; measured here: initial fluorescence intensity artifact check;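 brightness before thallium and not channel activity; 0 = typical well and far values either way flag optical interference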
The depositor's hits bear a star; i = inactive. Not all compounds are listed; count on the stated rates, not on these rows.

KCNQ2 inh baseline	KCNQ2 inh	structure
-0.67	i	CCOP(=O)(OCC)c1nc(/C=C/c2ccccc2)oc1NCc1ccc(OC)cc1
-0.26	i	CN(C)C(CNc1ccc(C(F)(F)F)cn1)c1ccccc1 (stereo unspecified)
-1.27	i	COc1cccc(/C=N/Nc2nc(Nc3ccccc3)nc(-n3nc(C)cc3C)n2)c1O
-0.24	i	COc1ccc(Cl)cc1NC(=O)c1ccccc1C
-3.58	i	C=C(Br)Cn1c(CCC)nc2ccccc21
-0.25	i	CCN1c2ccccc2-c2nc3ccccc3n2C1c1ccco1 (stereo unspecified)
1.67	i	Cc1ccc(S(=O)(=O)c2nc(NCCCn3ccnc3)sc2Cl)cc1
1.25	i	COc1ccccc1CCC(=O)Nc1ccc(S(=O)(=O)Nc2nccs2)cc1
0.98	i	O=C(Nc1nnc(S(=O)(=O)N2CCCC2)s1)c1ccccc1Cl
-1.29	i	O=C(NCc1csc(-c2cccs2)n1)c1cccc(Cl)c1
0.7	i	Cc1cc(-c2ccccc2)n2nc(C)c(-c3ccccc3)c2n1
-0.39	i	O=Cc1cccc(OC(=O)c2ccc(Cl)cc2Cl)c1
-0.19	i	O=C(NCCCCc1ccccc1)C12CN(Cc3ccccc3)CC1C(c1ccc([N+](=O)[O-])cc1)=NO2 (stereo unspecified)
-2.06	i	Cc1cccnc1NC(=O)c1ccc(NS(=O)(=O)/C=C/c2ccccc2)cc1
-0.12	i	CCOC(=O)c1c(NC(=O)CSc2nccc(=O)[nH]2)sc(C)c1C
-1.7	i	COc1ccccc1-c1cc(C(=O)NCc2ccco2)no1
0.61	i	Cc1ncc([N+](=O)[O-])n1Cc1ccccc1
-0.77	i	CCOC(=O)C(Sc1nnc2c3ccccc3n(CC)c2n1)C(=O)OCC
0.01	i	Cc1cccc(C(=O)Oc2ccccc2C(=O)N2CCOCC2)c1
-0.13	i	O=C(CNC(=S)N(CCCN1CCOCC1)Cc1cccs1)N1CCOCC1
-0.43	i	CCOc1ccc(C(C)=O)cc1CN1C(=O)c2ccccc2S1(=O)=O
0.04	i	CC(=O)Oc1c(C(C)C)cc(N(C(C)=O)c2ccccc2)cc1C(C)C
-0.45	i	Cc1cccc(NC(=O)C2CCN(S(=O)(=O)c3cccc4nsnc34)CC2)n1
-1.02	i	COc1cc(C(=O)OCC(C)=O)ccc1OCc1c(C)noc1C
-2.17	i	CCOC(=O)c1ccc(COC(=O)CNC(=O)CNC(=O)Cc2ccccc2)cc1
-0.33	i	Cc1ccc(-n2ncc3c(=O)n(-c4ccc(C)c(C)c4)c(-c4ccco4)nc32)cc1
3.22	i	Oc1[nH]c2ccccc2c1N=Nc1ncnc2c1oc1ccccc12
0.59	i	Cc1ccc(S(=O)(=O)N(CC(=O)Nc2cccnc2)c2ccc(Br)cc2)cc1
0.69	i	CC(=O)Cc1nsc(NC(=O)c2ccc(-c3cc(Cl)ccc3Cl)o2)n1
1.06	i	Cc1cc(C)c(NC(=O)CN2C(=O)NC3(CCCCC3)C2=O)c(C)c1
-0.19	i	O=S(=O)(c1ccccc1)N1c2cc(Cl)ccc2Oc2nc3ccccc3nc21
-0.44	i	COC(=O)c1cn(NC(=O)C2CCC(C)CC2)c(=O)c2ccccc12 (stereo unspecified)
0.19	i	COc1ccc(C2N3CC4(C)CN2CC(C)(C3)C4O)cc1OC (stereo unspecified)
-1.56	i	Cc1ccc(CN2CC(C(=O)Nc3nnc(SCc4c(Cl)cccc4Cl)s3)CC2=O)cc1 (stereo unspecified)
2.01	i	CC(C)COP(=O)(c1ccc(N(C)C)cc1)C(O)c1ccc(N(C)C)cc1 (stereo unspecified)
-0.9	i	CC(=O)c1c(C)n([O-])c2cc(C)ccc2[n+]1=O
0.21	i	COc1ccc(CN2C(=O)N(c3ccc(OC)cc3)C(=O)C2CC(=O)Nc2ccccc2)cc1 (stereo unspecified)
-1.85	i	COc1ccc(C2(C)CC(C)(C)Nc3ccccc32)cc1 (stereo unspecified)
1.1	i	CCNC(=S)N(CCc1c(C)[nH]c2ccccc12)Cc1cccnc1
1.34	i	CCOc1ccc(-n2c(SCC(=O)NC(C)CC)nc3n[nH]c(C)c3c2=N)cc1 (stereo unspecified)
0.01	i	COc1ccc(-c2ccc(-c3nc4c(c(=O)[nH]c(=O)n4Cc4ccccc4)n3C)o2)c([N+](=O)[O-])c1
-0.15	i	O=C(c1ccco1)N1CCN(C2=NS(=O)(=O)c3ccccc32)CC1
0.34	i	CSc1ccc(CN(C)C(=O)COc2ccc(C(=O)c3ccccc3)cc2)cc1
-1.38	i	O=C(/C=C/Sc1ccccc1)c1ccc(Cl)cc1
0.35	i	CCCn1c(=O)c2ccccc2n2c(SCc3cc(=O)oc4ccc5ccccc5c34)nnc12
-0.98	i	COc1ccc(OCCSc2ncc(CO)n2C)cc1
-0.13	i	COc1cccc(N2CCN(C(=S)Nc3cc(C)cc(C)c3)CC2)c1
-1.74	i	CC(=O)Nc1ccc(S(=O)(=O)N2CCC(c3nc4ccc(C)cc4[nH]3)CC2)cc1
-0.73	i	Cc1ccc(S(=O)(=O)N(CC(=O)N2CCc3ccccc3C2)c2cccc(Cl)c2)cc1
0.23	i	CN1CCC(OC(=O)Cc2ccc(Cl)cc2)CC1
0.7	i	CCCCOc1ccc(/C=C/C2=CC(C)(C)NC(=S)N2)cc1OCC
-0.49	i	Cc1cc(C)c(C)c(S(=O)(=O)N2CCN(C)CC2)c1C
-0.01	i	COc1ccc(C)cc1NC(=S)N1CCN(c2ccccn2)CC1
-0.79	i	CC1CCC2(CC1)NC(=O)N(CC(=O)c1cn(CCC#N)c3ccccc13)C2=O (stereo unspecified)
-0.8	i	CC(=O)C1=C(O)C(=O)N(c2ccc(Br)cn2)C1c1ccccc1[N+](=O)[O-] (stereo unspecified)
-0.01	i	O=C(CSc1nc(Nc2ccccc2)nc(N2CCOCC2)n1)Nc1ccc(Br)cc1F
0.22	i	CN(C(=O)CN1C(=O)c2ccccc2S1(=O)=O)c1ccccc1C(=O)O
-1.67	i	N#CCCn1cc(/C=N/O)c(-c2ccc(-c3ccccc3)cc2)n1
-0.02	i	CN(C)S(=O)(=O)c1cc(NC(=O)CN2CCN(c3ccccc3)CC2)ccc1Cl
-0.66	i	COc1cccc(C2NC(=O)c3ccccc3O2)c1OC (stereo unspecified)

Shown with bars between the fields: part of the list above
SMILES | KCNQ2 inh baseline | KCNQ2 inh
O=C(CSc1nc(Nc2ccccc2)nc(N2CCOCC2)n1)Nc1ccc(Br)cc1F | -0.01 | i
Cc1cccc(C(=O)Oc2ccccc2C(=O)N2CCOCC2)c1 | 0.01 | i
O=C(NCCCCc1ccccc1)C12CN(Cc3ccccc3)CC1C(c1ccc([N+](=O)[O-])cc1)=NO2 (stereo unspecified) | -0.19 | i

Part of the list above in order of molecular weight, rising.
KCNQ2 inh baseline	KCNQ2 inh	structure
-0.49	i	Cc1cc(C)c(C)c(S(=O)(=O)N2CCN(C)CC2)c1C
-0.44	i	COC(=O)c1cn(NC(=O)C2CCC(C)CC2)c(=O)c2ccccc12 (stereo unspecified)
0.34	i	CSc1ccc(CN(C)C(=O)COc2ccc(C(=O)c3ccccc3)cc2)cc1
-0.73	i	Cc1ccc(S(=O)(=O)N(CC(=O)N2CCc3ccccc3C2)c2cccc(Cl)c2)cc1
0.35	i	CCCn1c(=O)c2ccccc2n2c(SCc3cc(=O)oc4ccc5ccccc5c34)nnc12

The listing continues:
KCNQ2 inh baseline	KCNQ2 inh	structure
-1.59	i	CCn1c(SCC(=O)Nc2nc(-c3ccccc3)cs2)nnc1-c1ccccc1O
0.4	i	CCN1CCN(S(=O)(=O)c2ccc(Cl)c(C(=O)Nc3nnc(C)s3)c2)CC1
-0.64	i	S=C(c1ccc(-c2ccc(Cl)c(Cl)c2)o1)N1CCOCC1
0.15	i	COc1cc(/C=C/c2noc(-c3ccccc3O)n2)ccc1OC(C)=O
1.76	i	CCN(C(=O)c1ccco1)c1nc(CC(=O)Nc2ccc(Cl)cc2)cs1
4.38	i	Cc1cccc(C)c1NC(=O)COc1ccccc1C(=O)Nc1ccc(Br)cn1
2.56	i	COc1ccc2c(Cl)c(C(=O)NCCCn3ccnc3)sc2c1
-2.47	i	CCOC(=O)C(NC(=O)CC)(Nc1nc2c(s1)CCCC2)C(F)(F)F (stereo unspecified)
1.07	i	Cc1ccc(S(=O)(=O)N2CCCCC2)cc1C(=O)OCC(=O)NC(=O)NC12CC3CC(CC(C3)C1)C2
0.03	i	Cc1cccc(NC(=O)Cn2nnc(C(=O)NCc3cccs3)c2N)c1C
-1.83	i	COc1ccc(CCNC(=O)CCN2C(=O)C(C)Oc3ccc(C)cc32)cc1OC (stereo unspecified)
0.2	i	CNCc1ccccc1OCc1ccc(F)cc1
-2.39	i	CSc1ccccc1NC(=O)CCn1c(=O)oc2ccccc21
-0.02	i	COC(=O)C1C(=O)C2=C(CC1C)NC(C)=C(C(=O)OC(C)C)C2c1ccc(OC)c(O)c1 (stereo unspecified)
0.33	i	O=C(Nc1cccc(S(=O)(=O)N2CCCC2)c1)c1ccc2c(c1)OCO2
-1.43	i	COc1ccc(S(=O)(=O)N2CCC(C(=O)Nc3cccc(Cl)c3)CC2)cc1OC
0.38	i	Cc1onc(-c2ccccc2)c1C(=O)O/N=C(\N)c1ccc([N+](=O)[O-])o1
-1.09*	-6.08*	COc1ccc(/C=N/NC(=O)c2ccc[nH]2)cc1
-1.19*	-8.25*	COc1ccccc1N1CCN(C(=O)c2oc3cc(C)cc(C)c3c2C)CC1
0.14	i	Cc1cc(C)n2cc(COc3ccccc3)nc2n1
1.58	i	CCCC(C(=O)NC1CCCC1)N(Cc1cccs1)C(=O)c1snc(C(N)=O)c1N (stereo unspecified)
0.19	i	COc1ccc(Cn2c(=O)sc3ccccc32)cc1
-1.48	i	Cc1cc(=O)[nH]c(SCc2cccc(F)c2)n1
-0.92*	-8.66*	COc1ccccc1C(=O)n1nc(-c2ccccc2)nc1NCc1ccco1
-0.1	i	Cc1cccc(C(=O)c2c(N)sc3c2CCC(C)C3)c1 (stereo unspecified)
-0.02	i	O=C(N/N=C\c1cc(Cl)ccc1O)c1ccc(S(=O)(=O)N2CCCCC2)cc1
1.07	i	Cc1c(/C=C(\CC(=O)O)c2nc3ccccc3s2)cc(C#N)n1C
-1.58	i	CC(NS(=O)(=O)OCC(Cl)(Cl)Cl)c1ccc(C(C)(C)C)cc1 (stereo unspecified)
0.12	i	Nc1nc(-c2ccc(Cl)cc2)nnc1-c1ccc(Br)cc1
0.67	i	N#C/C(=C\c1ccc(Cl)cc1)C(=O)Nc1cccnc1
1.55	i	CC1CCCN(S(=O)(=O)c2ccc(C(=O)Nc3nnc(C4=COCCO4)o3)cc2)C1 (stereo unspecified)
-2.43	i	CCOC(=O)C1CCN(S(=O)(=O)c2ccc3[nH]c4c(c3c2)CCCC4)CC1
1.28	i	COc1ccc(/C=C/C2=CCN(Cc3ccc(OC)cc3)CC2)cc1
-1.08	i	CC(C)Cn1c(N)c(C(=O)COC(=O)c2cnccn2)c(=O)n(C)c1=O
1.39	i	C/C(=N\NC(=O)c1cc(-c2ccncc2)nc2ccccc12)c1ccc(N2CCOCC2)cc1
-1.04	i	CC(C)N(C(=O)CS(=O)(=O)c1ccc(Cl)c(Cl)c1)C(C)C
0.9	i	COc1ccccc1CNC(=O)C1CC(c2ccccc2F)=NO1 (stereo unspecified)
1.92	i	COc1ccc(NS(=O)(=O)c2c(C)cc(C)cc2C)cc1
0.3	i	Cc1ccccc1N1C(=O)C(Oc2ccc(Cl)cc2)C1CNCCCOC(C)C (stereo unspecified)
-1.31	i	COc1cc(/C=N/NC(=O)c2cccc(NC(=O)c3ccccc3C)c2)ccc1O
0.14	i	COc1ccc(C2C(C(=O)N3CCN(c4ccccn4)CC3)CC(=O)N2c2ccc(OC)cc2)cc1 (stereo unspecified)
-1.04	i	COc1ccc(NC(=O)CSc2nc3ccccc3c(=O)n2CCCN2CCC(C)CC2)c(OC)c1
-1.05	i	O=C(c1ccccc1C(=O)N1CCN(c2ccccc2F)CC1)N1CCN(c2ccccc2F)CC1
-0.46	i	O=C(CCN1C(=O)/C(=C/c2ccccc2)SC1=S)NNC(=O)c1ccncc1
0.09	i	CCOC(=O)c1cnc(SC)nc1Sc1ccc(Cl)cc1Cl
0.43	i	COc1ccc(CCNC(=O)CCSCc2ccccc2F)cc1OC
0.29	i	COc1ccc2nc(NC(=O)NC3CCCCC3)sc2c1
0.85	i	O=c1c2cnn(-c3ccccc3Cl)c2ncn1Cc1cccnc1
-0.89	i	O=C(/C=C/c1ccc2c(c1)OCO2)N1CCN(c2ccc(Cl)cc2)CC1
1.12	i	Cc1cccc(N2CCN(C(=O)CCS(=O)(=O)c3ccc4c(c3)NC(=O)C(C)S4)CC2)c1C (stereo unspecified)
-0.05	i	CNC(=O)/C(C#N)=C/c1c(N2CC(C)OC(C)C2)nc2ccccn2c1=O (stereo unspecified)
0.75	i	COc1ccccc1NS(=O)(=O)c1cc(NC(=O)c2[nH]c(C)c(C(C)=O)c2C)ccc1N1CCOCC1
1.78	i	CCc1nc2nc(C)c(NS(=O)(=O)c3ccc(Cl)s3)c(=O)n2[nH]1
-0.25	i	O=C(N/N=C/c1ccc2c(c1)OCO2)C1CC1

In a second layout: 3 of the compounds above.
mol	KCNQ2 inh baseline	KCNQ2 inh
COc1ccc(/C=C/C2=CCN(Cc3ccc(OC)cc3)CC2)cc1	1.28	i
CC(C)N(C(=O)CS(=O)(=O)c1ccc(Cl)c(Cl)c1)C(C)C	-1.04	i
CC(C)Cn1c(N)c(C(=O)COC(=O)c2cnccn2)c(=O)n(C)c1=O	-1.08	i

Assay outcomes from PubChem BioAssay.
